# Screening data (PubChem BioAssay)
# Mtb H37Rv: M. tuberculosis H37Rv growth inhibitors, H37Rv strain (AID 1626); 0.95% of 220,000 active; inhibition, % at 10 µM; hits with a dose series show IC50 in µM; M. tuberculosis H37Rv growth inhibition; higher % means a stronger effect;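 active = confirmed in a dose series; inconclusive = inhibition above 80% but not taken into the dose series; inactive = below 80% or under 30% at every dose of the series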;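 note: bacteria incubated seven days before Alamar blue readout; 0% = bacteria only wells and 100% = bacteria with antibiotic wells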
# YopH PTP inh: blocks Yersinia enterocolitica YopH tyrosine phosphatase; fluorescence Ex485/Em525; inhibition, %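 (about 10 µM by stock and volumes)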; 0.16% of 140,000 active; AID 898;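 active = inhibition of 50% or more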;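 note: controls were vehicle for no effect and minimum signal wells for full effect; inactives centre near -20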
# Mtb betalactam: beta-lactam sensitization of Mtb H37Rv; M. tuberculosis H37Rv growth with meropenem, percent inhibition; hits of this screen are not shown here; inhibition, % at 25 µM; 0.27% of 330,000 active; AID 434955;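 active = about 74% or more and at least 40 points above the plate without the antibiotic, then above 30% in a dose series; inconclusive = first-round hits that could not be retested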;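 note: growth measured after seven days incubation then overnight dye step; 0% = bacteria only wells and 100% = bacteria with antibiotic; twin plates without the antibiotic show which effects depend on it; some results filed as inactive read as strong as hits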
# RecA splice inh: blocks M. tuberculosis RecA intein splicing; P9WHJ3; cell-free RecA intein splicing, fluorescence; inhibition, %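 (about 9 µM by stock and volumes)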; 0.75% of 290,000 active; in the data active = inhibition above about 30%; inconclusive = no clear call, values can overlap the other calls;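 note: 0% = vehicle wells and 100% = reference inhibitor control wells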
# Target sequence (P9WHJ3 whole entry, looked up, canonical isoform): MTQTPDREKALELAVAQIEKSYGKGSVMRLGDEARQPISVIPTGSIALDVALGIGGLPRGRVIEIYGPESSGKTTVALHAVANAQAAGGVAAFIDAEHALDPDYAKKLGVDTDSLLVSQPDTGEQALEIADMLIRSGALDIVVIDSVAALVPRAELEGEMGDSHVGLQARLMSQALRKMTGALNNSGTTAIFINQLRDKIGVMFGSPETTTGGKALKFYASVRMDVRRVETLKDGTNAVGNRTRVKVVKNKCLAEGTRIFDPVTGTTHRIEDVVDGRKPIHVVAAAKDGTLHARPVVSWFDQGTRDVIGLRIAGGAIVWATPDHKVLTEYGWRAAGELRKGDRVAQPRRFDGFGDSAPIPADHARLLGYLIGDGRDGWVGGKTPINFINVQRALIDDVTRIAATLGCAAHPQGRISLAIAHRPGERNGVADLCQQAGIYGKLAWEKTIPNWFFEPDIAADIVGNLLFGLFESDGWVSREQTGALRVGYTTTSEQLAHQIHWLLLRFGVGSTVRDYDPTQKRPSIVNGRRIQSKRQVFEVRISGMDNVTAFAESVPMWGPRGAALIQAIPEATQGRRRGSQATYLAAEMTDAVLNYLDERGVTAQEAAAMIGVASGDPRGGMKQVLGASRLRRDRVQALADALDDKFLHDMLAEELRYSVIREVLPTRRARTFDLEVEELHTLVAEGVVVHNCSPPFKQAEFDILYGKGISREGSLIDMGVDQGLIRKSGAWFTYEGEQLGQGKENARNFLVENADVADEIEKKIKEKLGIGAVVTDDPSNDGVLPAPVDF
# Arbovirus anti: blocks arbovirus infection; arbovirus infection cell-based antiviral screen; 0.37% of 200,000 active; inhibition, % at 10 µM;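 active = inhibition from about 30%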;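 note: bluetongue infection of BSR cells; cell survival read as ATP light after 72 h; 0% = infected wells without compound and 100% = uninfected wells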
# Arbovirus anti repeat: recorded beside Arbovirus anti, whose call it bears; inhibition, %; measured here: 10K subset replicate screen; many hits read low in the repeat;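 first of two repeat runs on a subset; 0% = infected and 100% = uninfected wells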
# The depositor's hits bear a star; ? = inconclusive; / = no result given.
SMILES,Mtb H37Rv,YopH PTP inh,Mtb betalactam,RecA splice inh,Arbovirus anti,others
Cc1ccc(S(=O)(=O)N2CCN(S(=O)(=O)N3CCOCC3)CC2)cc1,-5%,-5,0,-1.9,0,
O=C(NC1CC1)C1CCN(C2CCN(Cc3ccccc3C(F)(F)F)CC2)CC1,/,/,1,0.2,/,
COc1ccc(CN(C)CC2CCCN(CCc3ccc(Cl)cc3)C2)cc1OC (stereo unspecified),/,/,1,0.6,/,
Cc1ccc(-c2csc(NC(CO)c3nc4ccccc4n3CCOCCO)n2)cc1 (stereo unspecified),-9%,/,-5,7.9,/,
CCN1C(=O)/C(=C2/C=CC=CN2C)OC1=S,2%,-25,-8,-0.2,1,
Cc1sc2ncn3ncnc3c2c1C,-7%,-12,-6,4.4,9,
COc1ccc(C2/C(=C(/O)c3ccc4c(c3)CC(C)O4)C(=O)C(=O)N2Cc2ccncc2)cc1 (stereo unspecified),/,/,1,1.8,/,
Cc1ccc(CCNC(=O)C23CN(Cc4ccccc4)CC2C(c2cccc([N+](=O)[O-])c2)=NO3)cc1 (stereo unspecified),/,-36,3,0.8,8,
CCN(CC(=O)Nc1ccccc1C(F)(F)F)C(=O)C1CSC2(C)CCC(=O)N12 (stereo unspecified),/,/,-3,2.3,/,
Cn1c(CN2CCOCC2)nnc1SCc1ccccc1,-13%,-6,0,1.5,7,
CC(C)OCCCNC(=O)NC(=O)c1ccc(Cl)cc1,-1%,/,-3,-1.6,5,
CCOC(=O)Cn1nc(C)n(-c2ccc(Br)cc2)c1=O,-6%,/,-3,-2.2,2,
Cc1ccc(C(=O)Nc2ccc(S(=O)(=O)N3CCc4ccccc4C3)cc2)o1,3%,-12,-18,2.1,6,
COc1ccc(NC(=O)CNC(=O)Cc2cccc3ccccc23)c(OC)c1,/,/,-1,1.8,/,
COc1ccccc1N1CCN(C(=O)/C=C/c2ccccc2)CC1,-5%,14,3,1.4,-3,
CCN(CC)c1nc2n(c(=O)n1)CCN2CC,-6%,-33,-3,-3.4,-1,
CC(C)(C)N/N=C/c1cc(Cl)cc([N+](=O)[O-])c1O,0%,-12,0,4.2,9,
CC1CN(C(=O)N2CCCCC2)CCN1C(=O)N1CCCCC1 (stereo unspecified),-1%,/,-5,1.1,5,
N/C(=N\OC(=O)Cc1ccccc1[N+](=O)[O-])c1cccnc1,0%,/,2,-0.2,1,
Cc1nn(CC(=O)Nc2ccccn2)c(C)c1[N+](=O)[O-],-1%,-4,18,-2.2,8,
Cc1cccc(NNC(=O)C2CCC2)c1,61%,/,94,0.2,/,
Cc1cc(N2CCN(C)CC2)nc2ccc(NC(=S)N3CCN(c4ccc(Cl)cc4)CC3)cc12,/,/,-1,1.4,-30,
S=C(Nc1cccnc1)N1CCN(c2ccccc2Cl)CC1,/,/,-1,-1.1,/,
Cc1ccc(S(=O)(=O)CCC(=O)OCC(=O)NCC(=O)Nc2c(C)cc(C)cc2C)cc1,/,/,-1,-0.8,/,

# For reference, 3 of the compounds above.
SMILES,Mtb H37Rv,YopH PTP inh,Mtb betalactam,RecA splice inh,Arbovirus anti,others
COc1ccc(NC(=O)CNC(=O)Cc2cccc3ccccc23)c(OC)c1,/,/,-1,1.8,/,
COc1ccccc1N1CCN(C(=O)/C=C/c2ccccc2)CC1,-5%,14,3,1.4,-3,
CCN(CC)c1nc2n(c(=O)n1)CCN2CC,-6%,-33,-3,-3.4,-1,

# (cont.)
SMILES,Mtb H37Rv,YopH PTP inh,Mtb betalactam,RecA splice inh,Arbovirus anti,others
O=C(c1n[nH]c(=O)c2ccccc12)N1CCN(C2c3ccccc3-c3ccccc32)CC1,-8%,-25,73,0.6,17,
Cc1ccc(NC(=O)CCc2nc3ccccc3s2)c(O)c1,-2%,/,19,1.8,13,
COc1ccc(C(=O)NCCSc2ccccc2)cc1,-2%,-5,-1,2.8,-10,
Cc1ccc2c(c1)N(CC(=O)NCCC1=CCCCC1)C(=O)c1cccnc1O2,/,/,?,6.1,/,
COc1ccc(C2C(=O)N(C3CCCCC3)CC(=O)N2C2CCCC2)cc1 (stereo unspecified),-2%,-28,-16,0.6,-7,
COc1cccc(/C=N/Nc2nc(C)cc(=O)[nH]2)c1OC,/,/,-2,-2.0,/,
CCCCC(=O)N/N=C(\C)c1cccc(NC(=O)C2CC2)c1,-2%,-29,1,0.3,2,
CCCn1cnc2c(oc3ccccc32)c1=O,/,/,-3,-0.5,/,
CC1=CC=CC2=NC(=O)CC(C)(C(=O)O)N12 (stereo unspecified),-2%,/,-6,0.2,7,
O=C(OCC(=O)N1CCN(C(=O)c2ccco2)CC1)c1cn(-c2ccccc2)nc1-c1ccccc1,10%,-39,76,1.9,-4,
CN(C)C(CNc1ccc([N+](=O)[O-])cc1C#N)c1ccccc1 (stereo unspecified),3%,/,0,-1.0,-1,
COc1ccc(C2=NS(=O)(=O)N(C)C(C(=O)Nc3ccc(OC)c(OC)c3)=C2)cc1,/,/,-5,-7.4,/,

# Overlap with the part before: 3 compounds, followed by the next part.
SMILES,Mtb H37Rv,YopH PTP inh,Mtb betalactam,RecA splice inh,Arbovirus anti,others
O=C(OCC(=O)N1CCN(C(=O)c2ccco2)CC1)c1cn(-c2ccccc2)nc1-c1ccccc1,10%,-39,76,1.9,-4,
CN(C)C(CNc1ccc([N+](=O)[O-])cc1C#N)c1ccccc1 (stereo unspecified),3%,/,0,-1.0,-1,
COc1ccc(C2=NS(=O)(=O)N(C)C(C(=O)Nc3ccc(OC)c(OC)c3)=C2)cc1,/,/,-5,-7.4,/,
CCc1cccc(CC)c1NC(=S)NCc1ccc2[nH]c(C)cc2c1,/,-23,0,5.3,-4,
O=C(/C=C/c1ccccc1Cl)c1ccc[nH]1,55%,-21,2,25,10,
CC(C)(C)c1ccc(S(=O)(=O)/N=C2\C=C(NS(=O)(=O)c3ccccc3)C(=O)c3ccccc32)cc1,/,/,6,63*,/,
O=C(C(=O)N1CCN(c2ccc(F)cc2)CC1)c1cn(CC(=O)N2CCOCC2)c2ccccc12,/,/,4,0.1,/,
N#CCSc1nc2[nH]ncc2c(=O)n1-c1ccccc1Br,-9%,-42,-4,3.7,-1,
CCOC(=O)C1CCN(S(=O)(=O)c2ccc(OC)c(OC)c2)CC1,1%,-7,-3,-0.4,9,
O=C(Nc1ncn[nH]1)c1ccc(Cl)cc1Cl,-3%,/,6,-1.2,-1,
O=C(CSCc1nc2ccccc2[nH]1)Nc1ccc2ccccc2c1,?,-31,91,-0.7,12,
CCOc1ccc2nc(NC(=O)c3ccoc3C)sc2c1,9%,10,49,7.1,-18,Arbovirus anti repeat=-7
Cc1ccc(CNCC(=O)Nc2ccc(N3CCOCC3)cc2)cc1,4%,/,-8,-0.9,/,
CC(C)OCCCNC(=O)COc1ccc2oc3c(c2c1)CCCC3,/,/,12,-0.3,/,
O=C(c1cc2ccccc2oc1=O)N1CCCCCCC1,/,/,5,0.0,/,
CC1(C)OC(=O)C(=NNc2ccc(C(=O)O)cc2)C(=O)O1,-2%,/,-4,-0.2,/,
Fc1ccc(-c2nnc(NC3=NCCCCC3)o2)cc1,-3%,-23,2,0.9,11,
CC1(C)C2CCC1(C)C(OC(=O)C[n+]1ccccc1)C2 (stereo unspecified),-1%,/,-10,-2.7,/,
Cc1ccc(C)c(SCC(=O)N(C)CC(=O)Nc2ccc(N3CCOCC3)cc2)c1,/,/,-19,-0.1,/,
CCN=C1SC(CC(=O)NC(C)C)C(=O)N1CC (stereo unspecified),2%,-5,-14,-0.2,9,
O=C(Nc1ccccc1Cl)c1cccc(COc2cc(Cl)ccc2Cl)c1,/,-14,5,-5.7,-24,
Cc1ccc(NCC(=O)Nc2cccc(S(=O)(=O)N(C)C)c2)c(Cl)c1,8%,10,-2,2.5,17,
O=c1ccc(S(=O)(=O)N2CCC(Cc3ccccc3)CC2)c[nH]1,-7%,12,-6,4.9,9,
O=C(CCl)Nc1ccc(Oc2cnc3ccccc3n2)cc1,1%,-18,79,11,16,
C/C(=N\NC(=O)c1csc(C)c1C)c1ccc(C)s1,7%,-31,5,-9.6,2,
COC(=O)c1cccc(NC(=O)CSc2nnnn2C)c1,3%,-43,-1,1.1,4,
CCOc1ccc(NC(=O)NNC(=O)C(C)Oc2ccccc2OC)cc1 (stereo unspecified),/,/,-9,-3.3,/,
CN1CCN(C(=O)c2cccc(COc3cc(Cl)ccc3Cl)c2)CC1,1%,-13,-4,-4.6,-21,
Cc1cc(C(=O)N/N=C/C=C/c2ccccc2[N+](=O)[O-])c(C)o1,6%,/,-5,0.1,4,
CN(Cc1cccs1)C(=O)COc1cccc(-n2cnnn2)c1,9%,-52,0,-0.3,3,
CCOc1ccc(S(=O)(=O)N2CCCC(C(=O)NCc3cccnc3)C2)cc1 (stereo unspecified),/,/,-17,-0.9,/,
O=C(Nc1cccc(C(F)(F)F)c1)c1ccc2nc(N3C(=O)CCC3=O)sc2c1,-2%,-41,5,2.0,15,
O=C(NC1CCCCC1)C1CCN(c2nccs2)CC1,2%,-58,/,/,-9,
O=C1COc2ccc(C(=O)COC(=O)C3CC(O)CN3S(=O)(=O)c3ccc(Cl)cc3)cc2N1 (stereo unspecified),0%,/,-4,1.6,7,
COc1ccc(/C=C/C2=NC(=C\N(C)C)/C(=O)O2)cc1,3%,-10,33,-75,-3,
CC1CCCC(C)N1CCCNC(=O)Cn1ncc2c([nH]c3ccccc32)c1=O (stereo unspecified),/,/,-6,1.2,/,
Cc1nc(NC(=O)Nc2ccc(Cl)cc2)sc1C,3%,/,-1,0.5,9,
O=C(c1ccccc1)c1nnc(-c2ccncc2)o1,-4%,-41,-7,-0.7,0,
COC(=O)C(CC(=O)c1ccc(Br)cc1)n1nc(C)cc1C (stereo unspecified),/,/,73,-3.1,/,

# Pulled one by one from the list above (6):
SMILES,Mtb H37Rv,YopH PTP inh,Mtb betalactam,RecA splice inh,Arbovirus anti,others
Cc1nn(CC(=O)Nc2ccccn2)c(C)c1[N+](=O)[O-],-1%,-4,18,-2.2,8,
O=C(/C=C/c1ccccc1Cl)c1ccc[nH]1,55%,-21,2,25,10,
CC1(C)OC(=O)C(=NNc2ccc(C(=O)O)cc2)C(=O)O1,-2%,/,-4,-0.2,/,
COc1cccc(/C=N/Nc2nc(C)cc(=O)[nH]2)c1OC,/,/,-2,-2.0,/,
S=C(Nc1cccnc1)N1CCN(c2ccccc2Cl)CC1,/,/,-1,-1.1,/,
O=C(Nc1ncn[nH]1)c1ccc(Cl)cc1Cl,-3%,/,6,-1.2,-1,

# Continuation.
SMILES,Mtb H37Rv,YopH PTP inh,Mtb betalactam,RecA splice inh,Arbovirus anti,others
COc1ccc(CCNC(=O)CSc2nc(N)c3c(C)c(C)oc3n2)cc1OC,3%,-44,-9,-0.3,1,
O=C(NNC(=O)C1C2CCC(C2)C1C(=O)O)c1ccc(Br)o1 (stereo unspecified),1%,-23,2,2.7,-2,
CCC(=O)Nc1cccc(C(=O)/C=C/c2ccc(F)cc2)c1,?,/,100,/,-32,
CCOC(=O)c1sc2nc(CC(=O)OC)nc(N3CCN(c4ccccn4)CC3)c2c1C,13%,-36,86,8.4,2,
CCCCn1c(=O)c(CCC(=O)OCC(=O)NC(C)c2ccccc2)nc2ccccc21 (stereo unspecified),4%,/,-2,-1.3,-4,
CN(NS(C)(=O)=O)c1ncc(C(F)(F)F)cc1Cl,/,/,-1,-6.0,2,
Cc1ccc(C(=O)CSc2nnc(-c3ccco3)n2C)cc1,-11%,/,-1,-0.1,-2,
CCOC(=O)c1c(NC(=O)c2nn(CC)cc2Br)c(C#N)cn1-c1ccccc1,-6%,26,-4,6.3,-20,
COc1ccc2nc(NC3=NC(c4ccccc4)CC(=O)N3)nc(C)c2c1 (stereo unspecified),-5%,-23,-2,-3.1,-9,
Cc1ccnn1CC(=O)N/N=C/c1cn[nH]c1-c1ccc(F)cc1,-8%,/,1,3.2,/,
Cc1cc(C)n2nc(-c3sccc3-n3c(C)ccc3C)cc2n1,3%,-22,-4,-8.4,-8,
Cc1ccc(NC(=O)CN(C)C(=O)COC(=O)CCS(=O)(=O)c2ccc(C)cc2)cc1,/,/,?,2.9,/,

# Not all compounds are listed. The share of hits here may be higher or lower than overall.
